# Source: PubChem (several laboratories)
# Ecoli growth: inhibitors of Escherichia coli growth; OD600, 23 h; active compounds read low; 330,000 tested, 0.21% active; OD600 absorbance (no concentration beside the values);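 active means OD600 absorbance below the run mean of sample wells minus 3.6 SD, in any replicate, cut at about 0.56 in these data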;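 further: stock transfer was 300 nL into about 60 µL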
# LANA-H2A inh: blocks KSHV LANA binding to histone H2A/H2B. Q9QR71. cell-free LANA-H2A/H2B peptide, fluorescence polarization. inhibition, % (concentration not given with the values). 320,000 tested, 0.6% active. AID 2629; in the data active means inhibition mostly above about 10%, no sharp cut-off; inactive means mostly below about 6.7%;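 further: stock transfer was 7.5 nL into about 10 µL; 0% = median of vehicle wells and 100% = median of positive control wells; one replicate is shown; the record names a cut of 25% in any replicate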
# UCH37 inh: human UCH37 deubiquitinating enzyme inhibition | Q9Y5K5 | purified proteasome/UCH37, Ub-AMC cleavage fluorescence | AID 588478 | inhibition, % (test concentration not listed) | 330,000 tested, 0.33% active;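 active means mean of two replicates above 20%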;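 further: 0% = compound-free wells with enzyme and 100% = wells lacking proteasome; stock transfer was 100 nL into about 20 µL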
# Target sequence (Q9Y5K5 whole entry, looked up): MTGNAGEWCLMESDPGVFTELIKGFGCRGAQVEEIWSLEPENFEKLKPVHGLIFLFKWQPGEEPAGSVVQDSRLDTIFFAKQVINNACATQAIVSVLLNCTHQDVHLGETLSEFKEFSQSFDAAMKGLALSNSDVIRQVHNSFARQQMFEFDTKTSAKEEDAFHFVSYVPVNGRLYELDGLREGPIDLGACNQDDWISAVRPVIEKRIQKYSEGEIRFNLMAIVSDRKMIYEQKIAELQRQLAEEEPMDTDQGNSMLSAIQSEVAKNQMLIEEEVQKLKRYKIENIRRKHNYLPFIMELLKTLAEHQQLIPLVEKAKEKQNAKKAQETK
#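 Material: human UCH37 enzyme supplied as purified proteasome complex / Amount: 0.15 nM proteasome as dispensed / Buffer or medium: pH 7.4 Tris-HCl (50 mM) with ovalbumin, ATP-MgCl2, DTT / Times: preincubation 30 min, reaction 25 min, room temperature / Technique: AMC fluorescence from Ub-AMC cleavage, excitation 355 nm, emission 460 nm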
# B2AR ag: agonists of human beta-2 adrenergic receptor inducing internalization. 340,000 tested, 0.43% active. response, % (no concentration beside the values). Am2.2-beta2AR cells, FAP receptor internalization, flow cytometry; reference of the scale not given here. P07550;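 active means response above a set limit, near 3 SD of response in nonfluorescent compounds, cut at about 42% in these data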;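 further: stock transfer was 100 nL into about 11 µL; a reference agonist was the positive control; negative values mostly stem from fluorescent compounds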
# Target sequence (P07550 whole entry, looked up): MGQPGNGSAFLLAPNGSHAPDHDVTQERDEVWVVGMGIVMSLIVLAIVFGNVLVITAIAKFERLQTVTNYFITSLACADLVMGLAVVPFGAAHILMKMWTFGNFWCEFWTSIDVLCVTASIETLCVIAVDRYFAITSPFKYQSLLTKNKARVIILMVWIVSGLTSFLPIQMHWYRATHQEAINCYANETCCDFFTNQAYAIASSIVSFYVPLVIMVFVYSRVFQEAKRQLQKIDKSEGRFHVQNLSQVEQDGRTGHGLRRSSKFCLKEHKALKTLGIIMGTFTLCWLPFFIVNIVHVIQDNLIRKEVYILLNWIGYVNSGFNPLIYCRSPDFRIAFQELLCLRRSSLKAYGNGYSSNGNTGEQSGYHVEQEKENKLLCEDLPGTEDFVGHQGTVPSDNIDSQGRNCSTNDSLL
# HNF4A DNA FP: change in binding of human HNF4 alpha to DNA; P41235; HNF4a-FITC DNA binding, fluorescence polarization, 1 h; activity change, % at 10 µM; 360,000 tested, 0.3% active; AID 1224865; in the data active means activity change above about 30%, passing the limit was not always enough;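 further: controls were the assay level and a saturating level of protein; the project sought stronger binding though the title names inhibitors; some compounds called inactive have numbers as strong as hits; positive values seem to mean higher polarization but the record does not say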
# Vif TR-FRET: inhibitors of Vif binding to APOBEC3G peptide, primary screen, biochemical, TR-FRET, GST-Vif 1-94, biotin-A3G peptide, dose response retest (AID 1117319) | TR-FRET GST-Vif / biotin-A3G peptide binding; higher % means a stronger effect; test concentration not given here; strong numbers were not always called active | inhibition, %, or IC50 in µM where a hit was titrated | 260,000 tested, 0.57% active;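 active means above the screen mean plus three standard deviations and confirmed in dose response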;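 further: Vif residues 1-94 fused to GST binding biotinylated APOBEC3G peptide 110-148; 0% = full assay without inhibitor and 100% = GST in place of GST-Vif; retest series ran down from 100 µM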
# Bfl-1 A1 inh: inhibitors of the anti-apoptotic protein A1, read as caspase activation | MEF A1-2A-BIM cells, Caspase-Glo 3/7 luminescence, 3 h; percent of clofoctol response, vehicle zero | caspase activation, % (no concentration beside the values) | 330,000 tested, 0.066% active | AID 2462;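 active means over half of replicate activation scores above 10%, or exactly half above 10 with the replicate mean above 10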;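 further: wells of about 30 µL received 50 nL stock; many hits fall short of the cut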
# Numbers without * were called inactive; . = no result given.
nr	SMILES	Vif TR-FRET	UCH37 inh	Ecoli growth	HNF4A DNA FP	Bfl-1 A1 inh	B2AR ag	LANA-H2A inh
1	COc1ccc(NC(=O)c2cc(-c3ccco3)nc3ccccc23)cc1	.	-9.5	0.732	2.8	-1.5	6.3	2.0
2	COc1ccc(NC(=O)Cc2ccc(C)cc2)cc1S(=O)(=O)N1CCCCC1	-3.7%	1.1	0.671	5.7	-1.3	-2.8	-0.6
3	COc1ccc(C(=O)OCC2CC(c3ccccc3)N(C)O2)cc1 (stereo unspecified)	-1.6%	-1.7	0.725	-3.2	-0.4	4.2	2.1
4	CCOC(=O)C(C)N1C(=O)S/C(=C/c2ccc3c(c2)n(C)c(=O)n3C)C1=O (stereo unspecified)	3.7%	1.9	0.714	1.1	-0.1	11.0	3.9
5	Cc1ccc(OCC(=O)NC2CC(C)(C)NC(C)(C)C2)cc1C	.	2.8	0.681	-5.5	2.0	2.9	-2.8
6	Cc1[nH]c(=O)[nH]c(=O)c1S(=O)(=O)Nc1ccc(F)cc1Cl	-6.9%	-0.4	0.688	0.4	0.6	-6.9	5.1
7	CCCCCCNCc1c(F)cccc1Cl	.	5.3	0.721	0.8	0.4	4.1	2.4
8	CCCCC(CC)CO (stereo unspecified)	.	4.4	0.727	-0.4	.	4.5	.
9	Cn1cccc1C(C#N)(CC#N)c1cccc(F)c1C#N (stereo unspecified)	18.4%	4.6	0.721	1.9	-0.1	1.0	-0.8
10	CCOCCc1c(O)nc(SCC(=O)NCc2ccco2)[nH]c1=O	-2.5%	1.3	0.668	0.5	-0.1	0.1	-1.0
11	Cn1nc(-c2ccc3c(c2)OCCO3)c2ccccc2c1=O	-7.1%	3.4	0.685	-1.6	0.4	-0.2	0.7
12	Cc1cc(=O)[nH]c(SCC(=O)Nc2nc(-c3ccccc3)c(-c3ccccc3)o2)n1	-0.9%	-21.4	0.638	0.5	0.6	-4.5	-0.6
13	CCN(CC(=O)Nc1ccc(OC)cc1)C(=O)c1cc2c(s1)CCCCC2	-18.9%	1.0	0.673	-2.0	0.3	1.3	2.3
14	COC(=O)c1ccc(NC(=O)CSc2nnnn2C2CCCCC2)cc1	10.0%	-0.7	0.711	-3.7	0.1	1.1	4.8
15	CCCc1nnc(SCC(=O)Nc2nccs2)o1	.	2.1	0.646	-3.1	-0.5	7.1	3.0
16	Nc1nonc1C(=O)NCCNc1ccc([N+](=O)[O-])cn1	-4.1%	.	.	1.3	1.4	-7.0	1.2
17	O=C(c1ccc(N2CN(C(=O)c3ccco3)c3nc4ccccc4nc32)cc1)N1CCOCC1	-1.0%	-2.8	0.72	-2.2	-3.2	0.0	9.5
18	CC(C)(C)c1ccc(S(=O)(=O)NCC(=O)N2CCN(C(=O)c3ccco3)CC2)cc1	-2.4%	-1.0	0.733	-2.4	0.7	-8.4	-0.6
19	CCN(CC(=O)Nc1ccc(NC(C)=O)cc1)C(=O)c1cccc(S(=O)(=O)N2c3ccccc3CC2C)c1 (stereo unspecified)	1.4%	0.6	0.685	-0.2	-0.2	0.6	3.0
20	COc1ccc(C(=O)CSc2nnc(-c3ccco3)n2CC2CCCO2)cc1 (stereo unspecified)	19.3%	1.2	0.748	-0.6	0.5	5.0	-0.4
21	COCCNC(=O)C(c1ccc(Cl)cc1)N(CCOC)C(=O)CCC(=O)Nc1nccs1 (stereo unspecified)	8.4%	-0.4	0.666	-0.9	0.2	1.1	6.7
22	OCCNC(=S)Nc1ccc(Cl)c(Cl)c1	1.2%	3.4	0.627	1.2	-0.7	1.2	-4.4
23	COc1ccc2sc(C)[n+](C)c2c1	19.3%	3.3	.	2.7	-0.6	-0.9	2.1
24	CCc1ccc(-c2cc3c(=O)n(CC(=O)NCc4ccccc4F)ncn3n2)cc1	.	0.5	0.717	4.1	-0.1	-1.8	2.8
25	CSCCCN1CC[C@@H](N2CCN(c3ccccc3F)CC2)[C@H](O)C1	.	4.4	0.671	-0.9	0.7	1.4	-6.2
26	CCc1ccc(C(=O)COC(=O)CCc2nc3ccccc3c(=O)[nH]2)cc1	1.2%	0.1	0.719	0.5	0.9	-4.0	-0.3
27	COc1ccc(NS(=O)(=O)c2cccc(C(=O)NNC(=O)COc3ccccc3)c2)cc1	-0.6%	0.7	0.622	0.1	0.0	15.5	-7.9
28	CC(=O)c1cc(N2CCOCC2)ccc1[N+](=O)[O-]	1.7%	10.1	0.67	-1.3	.	8.9	.
29	O=C(O)c1cccc(CSc2nnc(-c3cccnc3)o2)c1	-4.4%	-2.4	0.621	1.3	.	9.6	.
30	O=C(CSc1nc2ccccc2c(=O)n1-c1ccccc1)N1CCc2ccccc2C1	0.6%	3.3	0.704	5.3	0.5	-7.3	.

nr	SMILES	Vif TR-FRET	UCH37 inh	Ecoli growth	HNF4A DNA FP	Bfl-1 A1 inh	B2AR ag	LANA-H2A inh
31	Nc1cc(OC(=O)c2ccc(F)cc2)nn1S(=O)(=O)c1ccc(F)cc1	.	1.4	0.656	2.2	0.4	-2.0	1.9
32	COc1ccc(OC)c2[nH]c(=O)c(CCNC(=O)C(=O)c3c[nH]c4ccccc34)cc12	-65.0%	-0.2	0.739	4.3	0.3	7.1	0.1
33	CC(NC(=O)COc1ccccc1)C(=O)N1CCN(c2ccccc2)CC1 (stereo unspecified)	-12.3%	1.6	0.703	-1.1	1.3	-5.3	-0.5
34	COc1ccc(NC(=S)NNC(=O)Cn2nc(C(F)F)cc2C(F)F)cc1	-5.8%	2.5	0.703	3.9	0.4	2.0	6.9
35	CC(=O)NC(Cc1ccc(C(C)C)cc1)C(=O)NC1CCN(c2nc(C)cc(C)n2)CC1 (stereo unspecified)	-6.0%	-3.3	0.77	1.5	0.5	-4.0	1.3
36	O=C(NN1C(=O)C2C(C1=O)C1C=CC2C12CC2)c1ccc(Cl)cc1 (stereo unspecified)	.	0.8	0.651	-0.2	1.1	-5.2	0.1
37	Cc1noc(C)c1NC(=O)N(C)C[C@@H]1Oc2ccc(NC(=O)CCC(F)(F)F)cc2CC(=O)N([C@@H](C)CO)C[C@@H]1C	.	-2.0	0.788	3.5	0.7	3.7	-2.4
38	COc1ccc(NC(=O)N2CCC(O)(c3cccnc3)CC2)c(OC)c1	2.6%	5.1	0.706	0.9	0.1	1.2	-2.2
39	CCOc1ccc2oc(C(=O)N(CC)CC(=O)Nc3c(F)cccc3F)c(C)c2c1	-2.0%	-1.8	0.688	1.4	-0.1	-4.3	1.0
40	Cc1ccc2[nH]c(O)c(N=NC(=O)c3ccc(NS(=O)(=O)c4cccs4)cc3)c2c1	-1.6%	6.1	0.656	-1.7	-0.2	-1.7	-0.8
41	CC(C)c1ccc(NC(=O)NCc2ccc3c(c2)OCO3)cc1	-2.4%	0.8	0.712	0.8	0.3	-6.4	2.6
42	O=C(COc1ccc2ccccc2c1)N1CCN(c2ccccc2)CC1	-4.3%	-1.2	0.674	1.2	-1.3	5.6	-7.2
43	O=C(Nc1ccc(S(=O)(=O)N2CCOCC2)cc1)c1ccc(CN2CCc3ccccc3C2)cc1	-8.3%	1.3	0.657	.	-0.2	.	-0.5
44	O=C(C1CCCCN1S(=O)(=O)c1ccccc1)N1CCN(C(c2ccccc2)c2ccccc2)CC1 (stereo unspecified)	-1.9%	-1.7	0.722	4.0	0.2	4.9	1.5
45	CCOC(=O)N1CCC(NC(=O)c2ccc(CS(=O)(=O)c3c(Cl)cccc3Cl)o2)CC1	11.7%	5.0	0.77	4.2	0.1	-3.4	1.4
46	S=C(NCCCNC(=S)Nc1ccccc1)Nc1ccccc1	.	0.2	0.688	2.7	0.2	-4.2	-2.8
47	COc1ccc(CN(C)C(=O)c2ccc(COc3ccccc3)cc2)c(OC)c1	.	3.5	0.691	0.6	0.0	7.0	-1.3
48	COc1ccc(-c2nc(C#N)c(N3CCN(C(=O)c4ccco4)CC3)o2)cc1OC	-5.0%	-31.0	0.725	0.1	0.8	-5.7	-0.1
49	Cc1cccc(NC(=O)CCNS(=O)(=O)c2cccc3nonc23)c1	12.6%	3.2	0.631	7.5	1.1	-5.2	-2.7
50	CCC(C)Oc1cc(-c2ccnc(Nc3cccc(Cl)c3)n2)ccn1 (stereo unspecified)	14.3%	0.4	0.632	-1.7	0.8	18.2	-2.5
51	CC(=O)OC(C(=O)NCCc1ccccc1)c1cccnc1 (stereo unspecified)	-1.1%	0.3	0.674	0.2	-0.1	1.3	9.3
52	Cc1c(/C=N/NC(=O)c2cccnc2)cc(C#N)n1C	22.6%	.	.	-0.7	-0.1	-0.5	0.6
53	CC1CCc2c(sc3ncnc(NCCN4CCOCC4)c23)C1 (stereo unspecified)	.	4.0	0.744	-2.9	0.0	-24.1	5.1
54	O=C(NCc1ccc(F)cc1)C(=O)c1cn(CC(=O)N2CCCC2)c2ccccc12	.	5.9	0.67	3.0	0.6	-8.9	-2.3
55	O=S(=O)(c1ccc2ccccc2c1)N1CCN=C1SCc1cccnc1	-9.7%	5.7	0.697	0.3	0.9	-14.6	-6.2
56	Cc1ccc(CN2C(=O)c3ccccc3Sc3ccc(C(=O)NCCCN4CCOCC4)cc32)cc1	2.8%	5.0	0.678	-0.6	-1.8	15.3	1.0
57	CC(=O)c1cccc(NC(=O)c2cc(-c3ccco3)nc3ccccc23)c1	.	-74.3	0.697	13.1	-0.1	0.3	2.6
58	COc1ccc(Br)cc1CN1CCN(C(=O)c2ccco2)CC1	-1.8%	1.8	0.678	-1.2	0.4	-3.4	-5.3
59	CCOC(=O)n1c(=O)n(C)c2ccc(Br)cc21	-4.1%	2.2	0.61	-0.7	-0.1	-4.8	0.0
60	COc1cccc(/C=N/NC(=O)c2oc3nc(-c4ccccc4)cc(-c4ccco4)c3c2N)c1	.	.	.	38.6*	0.1	-25.5	-1.5

nr	SMILES	Vif TR-FRET	UCH37 inh	Ecoli growth	HNF4A DNA FP	Bfl-1 A1 inh	B2AR ag	LANA-H2A inh
61	CCn1c(NC(=O)c2ccccc2F)c(-c2cccs2)c(=O)c2ccccc21	.	8.4	0.669	-0.2	-0.9	-1.3	2.4
62	COC(=O)c1ccc(C(=O)N2CCCC(CNC(=O)c3ccc(F)cc3)C2)cc1 (stereo unspecified)	.	1.3	0.683	-3.5	1.2	-1.7	0.2
63	CC(=O)c1cccc(N2C(=O)CC(N3CCN(S(=O)(=O)c4ccc(Cl)cc4)CC3)C2=O)c1 (stereo unspecified)	-5.8%	.	.	-4.8	-0.1	-4.8	-0.9
64	CC(=O)/C(=N\Nc1cccc(Cl)c1)Sc1nnc(-c2ccccc2)n1-c1ccccc1	.	.	.	-0.1	-0.4	2.2	1.4
65	COc1ccc2c(Cl)c(-c3nnco3)sc2c1	-4.3%	-2.1	0.783	3.6	-2.0	-2.9	-1.2
66	OCC[C@H]1C[C@@H](O)[C@H](O)[C@]2(Cc3ccccc3CO2)O1	.	-0.2	.	-0.2	-0.2	4.5	1.0
67	CC1CCCC(NC(=O)CCn2c(=O)oc3ccccc32)C1C (stereo unspecified)	-4.3%	5.0	0.705	-2.2	1.4	-5.3	5.2
68	CN1CCN(/C(=N\O)c2nonc2N)CC1	28.7%	.	.	9.8	-0.1	-3.1	-2.4
69	COc1ccc(NC(=O)CC2Nc3cccc4cccc(c34)NC2=O)cc1 (stereo unspecified)	1.21µM*	-3.0	0.714	-3.9	-0.7	4.5	-0.8
70	CCNC(=O)CCC(=O)Nc1cc(Cl)ccc1C	-3.0%	1.8	0.67	-2.4	-0.7	-6.9	0.3
71	CCCCNc1nc2c(c(=O)n(C)c(=O)n2C)n1CCC	.	7.1	0.765	-2.3	0.0	-2.2	0.6
72	COC(=O)Cc1c(C)nc2nc(-c3ccc(Cl)cc3)[nH]n2c1=O	9.0%	2.4	0.694	-2.4	0.0	-0.5	3.1
